PABP polyA inh – PABP-poly(A) binding inhibition; P11940; PABP-poly(A) RNA binding, fluorescence polarization; inhibition, % at 35 µM; 1% of 290,000 active;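 active = 50% or more with normal probe brightness, or confirmed in later tests; inconclusive = above 50% with abnormal brightness, or retests that disagree; inactive = below 50% or failed in later tests; about a fifth of its hits are not listed in these tables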;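 note: calls also rest on retests at 20 µM and on dose response follow-up; controls were probe without protein and protein plus probe with vehicle; some compounds called inactive have numbers as strong as hits; many hits fall short of the cut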
Target sequence (P11940 whole entry, looked up): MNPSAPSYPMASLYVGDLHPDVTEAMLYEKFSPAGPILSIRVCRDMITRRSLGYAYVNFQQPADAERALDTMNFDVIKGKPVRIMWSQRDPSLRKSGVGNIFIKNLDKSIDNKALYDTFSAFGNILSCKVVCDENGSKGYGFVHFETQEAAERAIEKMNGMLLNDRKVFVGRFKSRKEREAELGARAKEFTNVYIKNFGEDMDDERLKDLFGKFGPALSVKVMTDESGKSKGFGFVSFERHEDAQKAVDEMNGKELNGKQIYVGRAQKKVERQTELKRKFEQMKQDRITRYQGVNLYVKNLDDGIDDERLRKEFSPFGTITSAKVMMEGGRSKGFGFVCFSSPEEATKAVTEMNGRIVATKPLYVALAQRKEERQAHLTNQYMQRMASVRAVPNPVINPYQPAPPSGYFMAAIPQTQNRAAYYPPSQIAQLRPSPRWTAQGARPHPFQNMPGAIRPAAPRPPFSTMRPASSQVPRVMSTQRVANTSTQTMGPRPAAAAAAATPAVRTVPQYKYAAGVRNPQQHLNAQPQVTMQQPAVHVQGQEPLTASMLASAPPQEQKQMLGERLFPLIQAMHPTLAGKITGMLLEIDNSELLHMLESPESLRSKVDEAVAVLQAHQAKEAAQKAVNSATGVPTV
eIF4H inh – inhibitors of RNA binding by human eIF4H; Q15056; eIF4H fluorescence polarization binding assay; inhibition, % at 35 µM; 0.94% of 290,000 active;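 active = 50% or more with normal probe brightness, or confirmed in later tests; inconclusive = above 50% with abnormal brightness, or retests that disagree; inactive = below 50% or failed in later tests; about a fifth of its hits are not listed in these tables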;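 note: calls also rest on retests at 20 µM and on dose response follow-up; 0% = protein and probe with vehicle and 100% = probe without protein; strong numbers were not always called active; many hits fall short of the cut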
Rce1 inhib – inhibitors of yeast Ras-converting enzyme; AID 2563; calls only; 0.27% of 290,000 active; Q03530; yeast membranes, quenched prenylated peptide cleavage fluorescence;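 active = fall in fluorescence gain of 50% or more versus controls, with final raw signal at or below 3038400; inconclusive = same 50% fall but final raw signal above 3038400; inactive = fall in fluorescence gain under 50%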;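 note: plate controls were neutral control wells for no effect and wells lacking membranes for full effect; tested at 10 µM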
CSC inhib – blocks cancer stem cells. cancer stem cell-like cells viability, luminescence. inhibition, % at 7.5 µM. 1.1% of 300,000 active;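 active = mean at 75% or more and at least half the replicates too; inconclusive = mean and replicates disagree; tested in HMLE shEcad cells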;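 note: 0% = median of negative and 100% = median of positive control wells; the first replicate is given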
Env fusion inh – HIV envelope-mediated fusion inhibition | inhibition, % at 12.3 µM | AID 651610 | 1.1% of 360,000 active | HeLa-JRFL Env/CEM21 cell fusion, luciferase;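 active = mean replicate inhibition score of at least 50 and every replicate individually at or above 50; inconclusive = only one of the two criteria met; inactive = mean below 50 and not all replicates reaching 50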;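 note: 0% = plate neutral controls and 100% = maraviroc near 300 nM; one replicate is shown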
UUG fidelity – modulators of start codon recognition fidelity in yeast; S. cerevisiae UUG-firefly luciferase reporter, luminescence/redox ratio; activity score, % at 18.7 µM; 0.13% of 350,000 active;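 active = replicate mean at a twofold rise or more, about +100% in these data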;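 note: firefly luciferase made from a UUG start codon reports start codon fidelity; reporter light over untreated wells divided by growth signal over untreated wells; some hits fall short of that in this replicate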
MT1-MMP act inh – MT1-MMP (human) activation inhibition; HT1080 RFP-PRO-GFP cells, GFP/RFP ratio fluorescence, overnight; percent of plate control window, DMSO zero; GFP/RFP ratio change, % at 20 µM; 0.061% of 360,000 active; P50281;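 active = GFP/RFP ratio change of at least 30% with cell ATP level not reduced by more than half and red fluorescence within 50% of control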; note: strong numbers were not always called active
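Compound: 20 µM single dose, 1% DMSO / System: HT1080 RFP-PRO-GFP cells / Controls: DMSO and RFP-L50D-GFP cell wells / Read-out basis: GFP/RFP fluorescence ratio / Schedule: overnight compound exposure at 37 °C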
MT1-MMP act inh RFP – second read-out of MT1-MMP act inh, no call of its own (marks repeat the call); RFP signal change, %; measured here: RFP expression control read;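 0 = vehicle wells; hits needed this value within 50% of zero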
Active calls of the source: *; i = inactive; ? = inconclusive; . = not tested or not shown. Rows are unselected, and some 2.9% of all compounds hit somewhere here.

mol	PABP polyA inh	eIF4H inh	Rce1 inhib	CSC inhib	Env fusion inh	UUG fidelity	MT1-MMP act inh	MT1-MMP act inh RFP
CCCCSc1n[nH]c(N)n1	-12	4	i	5	3	.	5	7
Cc1cccc(C)c1NC(=O)Nc1ccc2c(c1)OCO2	18	-14	i	-43	5	-19	-1	0
CC(C)(C)S(=O)(=O)c1ccc(S(=O)(=O)C(C)(C)C)s1	14	2	i	-26	.	.	.	.
Cc1noc(NS(=O)(=O)c2ccc(N/C=C\C(=O)c3cccc4ccccc34)cc2)c1C	-10	-6	i	-6	-1	-16	10	2
COC(=O)[C@H](C)NC(=O)Nc1ccccc1C(F)(F)F	7	6	i	-8	-41	-14	4	10
CCc1cccc(NC(=O)NC(=O)Cn2nnc(C(=O)OC)c2C(=O)OC)c1	10	-5	i	-3	-8	-6	13	6
COc1ccc(CCNC(=O)C(=O)c2cn(CC(=O)N3CCCC3)c3ccccc23)cc1OC	.	.	.	.	10	-3	-2	3
O=C(Nc1nccs1)c1cc(-c2ccncc2)nc2ccccc12	-11	13	i	4	-8	.	-8	-3

Looked up by structure from the entries so far, 2 records:
mol	PABP polyA inh	eIF4H inh	Rce1 inhib	CSC inhib	Env fusion inh	UUG fidelity	MT1-MMP act inh	MT1-MMP act inh RFP
COC(=O)[C@H](C)NC(=O)Nc1ccccc1C(F)(F)F	7	6	i	-8	-41	-14	4	10
CCCCSc1n[nH]c(N)n1	-12	4	i	5	3	.	5	7

Next results
mol	PABP polyA inh	eIF4H inh	Rce1 inhib	CSC inhib	Env fusion inh	UUG fidelity	MT1-MMP act inh	MT1-MMP act inh RFP
Cc1cccc(-n2cnc3sc(C)c(C)c3c2=O)c1	-7	-12	i	-4	-17	.	0	1
CCCC(C)NC(=O)/C=C/c1cccc([N+](=O)[O-])c1 (configuration not stated)	4	3	i	-17	.	15	-2	0
CCC(Sc1nc2cc(OC)c(OC)cc2c(=O)n1CCc1ccc(S(N)(=O)=O)cc1)C(=O)NCCOC (configuration not stated)	-9	1	i	6	14	10	1	1
NS(=O)(=O)c1ccc(CCNC(=O)c2ccc(Cl)nc2)cc1	5	-6	i	5	-3	-16	1	6
O=C(CCn1c2c(c3ccccc31)CCCC2)NNC(=O)c1ccccc1Cl	-10	-8	i	-2	-1	.	-1	5
C/C(CC(=O)Nc1cccc(C(F)(F)F)c1)=N\NC(=O)c1cnccn1	5	4	i	.	2	-20	0	5
O=C(CN1CCOCC1)Nc1ccccc1NC(=O)C1CCN(c2ncccn2)CC1	4	-5	i	2	-48	-1	3	9
CC(C)(C)n1ncc2c(=O)n(Cc3c(Cl)cccc3Br)cnc21	.	.	.	10	25	-7	0	-13

(cont.)
mol	PABP polyA inh	eIF4H inh	Rce1 inhib	CSC inhib	Env fusion inh	UUG fidelity	MT1-MMP act inh	MT1-MMP act inh RFP
NC(=O)Cn1c2[n+](c3ccccc31)CC(O)CS2 (configuration not stated)	0	5	i	1	.	.	0	-1
CCOc1ccc(-c2cc(C(=O)NCc3cc(C(F)(F)F)cc(C(F)(F)F)c3)[nH]n2)c(C)c1	.	.	.	.	-23	-12	4	6
CCCCCCN1C=CC(=C/C=C(\C#N)C(=O)OCC)C=C1	?	?	i	11	.	12	-322	0
O=C(NNC(=O)c1ccccc1F)c1ccc(-c2ccc(Cl)cc2)o1	.	.	i	1	-3	.	-1	4
CCOc1ccccc1NC(=O)C(NCC1(N2CCCCC2)CCCCC1)c1ccccc1 (configuration not stated)	4	0	i	-11	6	.	-6	3
Cc1ccccc1C(=O)NCCNC(=O)c1ccco1	5	-4	i	5	-6	-12	-2	1
Cc1ccc(C(C#N)c2ccc(Cl)nn2)cc1 (configuration not stated)	-6	-8	i	11	8	.	2	7
CC(=O)c1ccc(OCCOc2ccc([N+](=O)[O-])cc2)cc1	-6	3	i	0	-7	-4	1	-2

(further entries)
mol	PABP polyA inh	eIF4H inh	Rce1 inhib	CSC inhib	Env fusion inh	UUG fidelity	MT1-MMP act inh	MT1-MMP act inh RFP
Cc1ccc(N2CC(C(=O)OCC(=O)C(C)(C)C)CC2=O)cc1C (configuration not stated)	-5	-10	i	-5	-54	-11	-3	0
Cc1cccc(NC(=S)N(Cc2ccc(Cl)cc2)Cc2ccc(C(=O)O)cc2)c1	-8	-4	i	.	-10	.	-3	-1
Cc1ccccc1Nc1nc(N)nc(COC(=O)c2ccc(O)cc2)n1	0	-7	i	-1	3	.	-1	-1
c1ccc(-c2ccccc2OCCN2CCCC2)cc1	-5	8	i	-32	-8	-21	-5	-3
COc1ccc2nc(NC(=O)c3ccc(-c4cccc([N+](=O)[O-])c4)o3)sc2c1	-7	0	i	1	.	.	.	.
Clc1ccc(Nc2ccc3ccccc3n2)cc1	.	.	i	21	-248	.	7	3
CSc1nc(N2CCOCC2)c2c(c1C#N)CC(C(C)C)OC2 (configuration not stated)	-15	-6	i	16	23	-13	2	-6
Cc1cc(C(=O)NNC(=O)c2ccc(F)cc2)c(C)s1	.	.	.	-14	-36	-12	.	.

Next records.
mol	PABP polyA inh	eIF4H inh	Rce1 inhib	CSC inhib	Env fusion inh	UUG fidelity	MT1-MMP act inh	MT1-MMP act inh RFP
COc1ccc(NC(=O)C2Cc3c(-c4cccc(F)c4)ccnc3O2)cc1 (configuration not stated)	.	.	.	.	17	-39	0	-4
Cc1ccc(S(=O)(=O)N2CCN(C(=O)COC(=O)c3ccc([N+](=O)[O-])o3)CC2)c(C)c1	.	.	.	.	-9	17	-1	0
CC(C)(C)C(=O)Nc1ccc(NC(=O)c2ccco2)nc1	9	3	i	2	63*	-94	2	4
O=C(Nc1ccccc1N1CCOCC1)c1ccc(F)c(S(=O)(=O)N2CCOCC2)c1	.	.	.	0	0	-7	-3	-4
CC(C)NS(=O)(=O)c1ccc(OCC(=O)Nc2ccccc2F)cc1	3	-4	i	-13	.	-20	0	-3
CN(C)C1=NC[C@H](Cc2ccccc2)N1CCCCc1ccccc1	.	.	.	10	2	-3	0	3
CC1CCN(c2ncccc2C(=O)O)CC1	-6	1	i	-3	.	-25	1	3
Cc1ccc(NC(=O)CSc2nnc(-c3ccncc3)n2C)cc1S(=O)(=O)N1CCOCC1	-9	11	i	-5	4	-13	-7	-1

(more compounds)
mol	PABP polyA inh	eIF4H inh	Rce1 inhib	CSC inhib	Env fusion inh	UUG fidelity	MT1-MMP act inh	MT1-MMP act inh RFP
C=CCNC(=S)NNC(=O)C(CCC(C)C)CC(C)O (configuration not stated)	7	1	i	-2	.	-27	1	10
COc1ccc(C(O)c2nc(-c3cc4ccccc4o3)cs2)cc1 (configuration not stated)	.	.	.	.	21	-19	-5	-9
CCOC(=O)CNC(=O)CNC(=O)c1ccc(OC(C)C)cc1	2	-5	i	-6	9	2	-3	-4
Cn1ccs/c1=N\S(=O)(=O)c1ccc(Br)cc1	-5	-8	i	-4	16	-17	1	-1
CCOC(=O)Cn1c(=S)[nH]c2c(oc3ccc(Cl)cc32)c1=O	0	-10	i	-2	-14	-20	7	7
Cc1cc(C)c(N(CC(=O)NC(C)(C)C)C(=O)CNC(=O)c2cccs2)c(C)c1	-9	-4	i	-4	-13	.	-1	-3
CCCCCCc1nc(C(N)=O)c2[nH]c(=O)n(-c3ccc(OC)cc3OC)c2n1	5	-10	i	-22	4	-8	-3	0
CC(=O)C1C(=O)c2c(cccc2[N+](=O)[O-])C1=Nc1cccc(Cl)c1 (configuration not stated)	23	3	i	-7	-10	.	4	2

Next part
mol	PABP polyA inh	eIF4H inh	Rce1 inhib	CSC inhib	Env fusion inh	UUG fidelity	MT1-MMP act inh	MT1-MMP act inh RFP
COc1cc2c(cc1NC(=O)COC(=O)C1CC(=O)N(Cc3ccco3)C1)oc1ccccc12 (configuration not stated)	3	0	i	17	.	-11	3	1
Cc1ccc2cc(CN(C(=O)c3ccco3)c3ccccc3C)c(=O)[nH]c2c1	-5	1	i	-30	.	-5	-4	-7
CC(C)(C)OC(=O)NCc1n[nH]c(=S)n1C1CC1	-4	-4	i	-11	-27	-23	0	2
COCOCCn1cc(CN2CCS(=O)(=O)N(Cc3ccc(-c4ccc(F)nc4)cc3)C(C)C2=O)nn1 (configuration not stated)	.	.	.	.	2	2	0	3
CCOC(=O)C(=O)N/N=C/c1ccco1	65*	94*	i	-9	0	-8	2	4
O=C(COC(=O)/C=C/c1ccc(OC(F)F)cc1)NC(=O)NC1CCCCC1	.	.	.	5	-10	8	4	5
CCOc1ccc(-c2nn[nH]n2)cc1OCC	16	0	i	13	-20	-11	3	3
CCOC(=O)N1CCc2c(sc(NC(=O)C3COc4ccccc4O3)c2C(N)=O)C1 (configuration not stated)	-3	1	i	-4	-6	-26	0	-17

Taken from above for reference:
mol	PABP polyA inh	eIF4H inh	Rce1 inhib	CSC inhib	Env fusion inh	UUG fidelity	MT1-MMP act inh	MT1-MMP act inh RFP
O=C(COC(=O)/C=C/c1ccc(OC(F)F)cc1)NC(=O)NC1CCCCC1	.	.	.	5	-10	8	4	5
CCOc1ccc(-c2nn[nH]n2)cc1OCC	16	0	i	13	-20	-11	3	3

(more compounds)
mol	PABP polyA inh	eIF4H inh	Rce1 inhib	CSC inhib	Env fusion inh	UUG fidelity	MT1-MMP act inh	MT1-MMP act inh RFP
CCCC(NC(=O)Cc1c(C)c2c(cc(C)c3c(C)coc32)oc1=O)C(=O)O (configuration not stated)	-8	-2	i	-8	5	2	3	2
c1ccc(COCC2CCNCC2)cc1	2	-6	i	-10	3	-17	-2	1
CC(NCC(O)COc1ccc2ccccc2c1)c1ccccc1 (configuration not stated)	-14	-1	i	22	65*	-14	-4	-2
O=C1CCC(C(=O)Nc2cccc(C(F)(F)F)c2)N1 (configuration not stated)	-8	-3	i	-19	.	-1	1	5
O=C(c1ccc(F)cc1)N1CCN(c2cnn(-c3ccccc3)c(=O)c2Cl)CC1	2	-1	i	-17	6	.	3	-2
COc1ccccc1C(=O)COC(=O)c1nc2nc(C)cc(C)n2n1	.	.	i	35	-2	-1	2	5
CCOc1ccccc1N(CC(=O)Nc1ccccc1F)S(=O)(=O)c1ccccc1	4	-1	i	3	-3	1	-1	-7
Cc1cccc(NC(=O)C(Cc2ccccc2)n2cccc2)c1 (configuration not stated)	10	-1	i	5	22	.	-2	-1

Additional structures.
mol	PABP polyA inh	eIF4H inh	Rce1 inhib	CSC inhib	Env fusion inh	UUG fidelity	MT1-MMP act inh	MT1-MMP act inh RFP
COc1ccc(S(=O)(=O)N(CCc2ccccc2)CC(=O)O)cc1Cl	1	-14	i	-6	-20	-10	5	5
COC(=O)c1ccc(NCN2C(=O)C3C4CCC(C4)C3C2=O)cc1 (configuration not stated)	1	-12	i	-3	6	-11	4	6
Cc1cc(Nc2cccc(O)c2)c2ccccc2n1	16	-12	i	6	.	.	.	.
COc1ccc(-n2c(SCCNCCO)nc3sc4c(c3c2=O)CCCC4)cc1	0	-2	.	-5	11	1	-1	-1
CC(C)(C)n1nc2c(c1NC(=O)c1ccccc1)CS(=O)(=O)C2	-4	-2	i	8	-2	.	-1	3
COc1ccc(/C=C/C(=O)N(C)C2CCS(=O)(=O)C2)cc1OC (configuration not stated)	-4	-10	i	-8	21	.	2	-1
CC(=O)Nc1ccc2c(c1)nc(CCN1CCN(C)CC1)n2C	-10	-1	i	-7	-38	-22	6	5

Bioassay records: PubChem, several laboratories
